Screening data: PubChem BioAssay, ICCB-Longwood Screening Facility, Harvard Medical School
BmaI1 = BmaI1 acyl-homoserine lactone synthase inhibition – biochemical, fluorescence intensity, with counterscreen (AID 720554); BmaI1 enzyme assay, fluorescence intensity; stronger effect = higher value; test concentration not given here; a few actives read low; strong numbers were not always called active; inhibition, %; 12,000 compounds, 0.4% hits;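 active means both replicates within 2 robust z-scores of the inhibited control and a quiet counterscreen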;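 further: 0% = uninhibited enzyme and 100% = inhibited control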
BmaI1 counterscreen = recorded beside BmaI1, whose call it bears; inhibition, %; measured here: counterscreen; design of the counterscreen not given here;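 first of two replicates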
Starred values were filed as active, the others as inactive.

Values run as follows: BmaI1 counterscreen | BmaI1
CC(Sc1n[nH]c(-c2cccs2)n1)C(=O)Nc1ccc(C(N)=O)cc1 (configuration not stated)
  4 | -1
CCCCn1c(N)c(C(=S)NC(=O)CC(C)C)c(=O)n(C)c1=O
  26 | 47
CCOC(=O)c1c(NC(=O)COC(=O)/C=C/c2ccco2)sc(CC)c1C
  4 | 9
N#Cc1ccc(COC(=O)c2cc3ccccc3c(=O)[nH]2)cc1
  -6 | -10
O=C(N/N=C/c1cccc(S(=O)(=O)N2CCOCC2)c1)C1=COCCO1
  4 | 9
N#CC(C#N)=CNc1ccncc1
  8 | 27
COc1ccc(NC(=O)CC(C)NCc2ccc(CN3CCCC3)cc2)cc1 (configuration not stated)
  6 | 14
CC(=O)NC12CC3CC(C1)CC(C(=O)Nc1ccc(N4CCCCC4)cc1)(C3)C2
  -37 | 62
N#CCCN/N=C/c1ccc(-c2ccc(SC(F)F)cc2)o1
  28 | 20
COc1ccc(-c2nnc(SCC3CNC(=O)O3)n2C)cc1 (configuration not stated)
  12 | 26
O=C(CCc1nc2ccccc2c(=O)[nH]1)Nc1ccc2c(c1)CCC2
  4 | 4
O=C1NC(=O)c2cc(Cl)c(Cl)cc21
  0 | 4
Cc1cc(C)c(C(=O)COC(=O)c2cccc(OCc3c(C)noc3C)c2)cc1C
  9 | 12
COc1cc2c(cc1NC(C)C(=O)N1CCCC1)oc1ccccc12 (configuration not stated)
  39 | 54
COc1ccccc1NC(=O)Cc1noc(COC(=O)c2cc(OC)c(OC)cc2OC)n1
  0 | 3
Cc1occc1-c1nnc(SCC(=O)NC(=O)NCc2ccccc2)n1Cc1ccccc1
  0 | 5
CCc1cc(C(=O)Cc2cnn(-c3ccccc3)c2)c(O)cc1OC
  1 | 6
Cc1noc(C)c1COc1ccc(CC(=O)NCc2ccccc2)cc1
  4 | 12
O=C1c2ccccc2C(=O)c2c1oc1c3c(ccc21)OCN(Cc1ccccc1)C3
  7 | 12
COc1cccc(CN2C(=O)NC3(CCSC3)C2=O)c1 (configuration not stated)
  4 | 6

Grouped by structure, the compounds so far with a thiophene ring, fused or not (2)
Values run as follows: BmaI1 counterscreen | BmaI1
CC(Sc1n[nH]c(-c2cccs2)n1)C(=O)Nc1ccc(C(N)=O)cc1 (configuration not stated)
  4 | -1
CCOC(=O)c1c(NC(=O)COC(=O)/C=C/c2ccco2)sc(CC)c1C
  4 | 9

Next records:
Values run as follows: BmaI1 counterscreen | BmaI1
Cc1cc(OCC(O)CN(C(C)C)C(C)C)c(C(C)C)cc1Cl (configuration not stated)
  -4 | 8
CCOCCCNC1CC(C)CC(C)(C)C1 (configuration not stated)
  1 | 1
Cc1nc(Cc2nnc(SCc3cc(=O)oc4cc5c(cc34)CCC5)o2)cs1
  2 | 22
COCC(C)N1C(=Nc2cccnc2)SCC1(O)c1cc2ccccc2o1 (configuration not stated)
  4 | 8
Cn1c(CCC(=O)NCc2ccc(F)cc2)nc2cc(S(=O)(=O)N3CCCCC3)ccc21
  2 | 13
O=C1CC(N2CCN(S(=O)(=O)c3ccc4c(c3)OCCO4)CC2)C(=O)N1c1cccc(C(F)(F)F)c1 (configuration not stated)
  3 | 8
CC(NC(=O)CCOc1ccccc1)c1ccc(-n2ccnc2)cc1 (configuration not stated)
  8 | 10
Cc1nnc(SCC(=O)c2c(-c3ccccc3)n(C)c3ccccc23)n(N)c1=O
  2 | 14
O=C(N/N=C/c1ccc(-c2ccc(S(=O)(=O)Nc3ncccn3)cc2)o1)c1cccnc1
  2 | 13
O=C(CSc1ncnc2sccc12)N1CCC(c2nc3ccccc3o2)CC1
  6 | 26
O=C(/C=C/c1cc(Cl)c2c(c1)OCCCO2)Nc1ccc(-n2cnnn2)cc1
  6 | 6
O=C1CCCCC1Sc1nnc(-c2ccc3c(c2)OCO3)o1 (configuration not stated)
  7 | 12
CC(NC(=O)CN(C)C1CCS(=O)(=O)C1)c1ccccc1 (configuration not stated)
  -2 | 5
O=c1[nH]c(=S)[nH]c2c1cnn2-c1ccccc1
  -2 | 0
CC1Cc2ccccc2N1C(=O)COC(=O)c1ccc(S(=O)(=O)N2CCCC2)cc1 (configuration not stated)
  0 | 0
O=C1Nc2ccccc2SC1Nc1ccc(-c2nnc3n2CCCCC3)cc1 (configuration not stated)
  0 | -10
NCC1CCC(C(=O)Oc2ccc(CCC(=O)O)cc2)CC1 (configuration not stated)
  13 | 2
CC(C)(C)SCC(=O)NCc1ccc(S(N)(=O)=O)cc1
  2 | -2
N#Cc1ccccc1S(=O)(=O)Nc1ccccc1
  13 | 17
O=C(CNC1CC1)Nc1c(Cl)cccc1Cl
  4 | -3

Values run as follows: BmaI1 counterscreen | BmaI1
CN(Cc1cccs1)C(=O)COc1ccc(-c2nnco2)cc1
  8 | 3
CSc1ncc(C(=O)Nc2nc(CN3CCCCC3)cs2)n1-c1ccc(F)cc1
  0 | 0
O=C(CSc1n[nH]c(=O)n1Cc1ccccc1)c1ccc(S(=O)(=O)N2CCCC2)cc1
  14 | 73
O=C(Oc1ccccc1)C1CCCN(C(=O)c2ccc(Cl)cc2)C1 (configuration not stated)
  -2 | 6
CC(NC(=O)c1ccco1)C(=O)OCc1cccc(Cl)c1 (configuration not stated)
  8 | 14
O=C1NC(=S)S/C1=C\c1ccccc1OCC(=O)N1CCCC1
  14 | 34
O=C(OCc1cccs1)c1ccc(-c2nc3ccccc3s2)s1
  -9 | 8
O=C(Cn1c(=O)oc2ccccc21)NCc1ccccc1
  14 | 17
Cc1ccc(S(=O)(=O)c2nc(S(=O)(=O)C3CCCCC3)sc2N(C)C)cc1
  8 | 23
COCCn1c(C)cc(C(=O)COC(=O)c2cc3c(s2)CCCCC3)c1C
  -4 | 2
CSc1ncc(C(=O)Nc2ccccc2N2CCN(C)CC2)n1-c1ccccc1
  8 | 12
Nc1c2c(nc3c1CCC3)CCCC2
  10 | 4
COCCN=c1scc(-c2ccc(O)c(C(N)=O)c2)n1/N=C/c1cccnc1
  52 | 10
O=C1CCc2ccccc2N1
  -5 | -11
O=C(Cc1ccccc1)Nc1nc(-c2cccs2)cs1
  1 | 19
Cc1ccc(CNC(=O)CSc2nc3cc(S(=O)(=O)N4CCCCC4)ccc3o2)cc1
  -1 | -2
Cc1cccc(C)c1OCC(C)N (configuration not stated)
  0 | -8
COc1ccc(CSc2cccc[n+]2[O-])cc1F
  6 | 8
CCN=c1scc(-c2cc(C)c(C)cc2C)n1/N=C/c1ccc(C)o1
  8 | 16
C=C(C)c1cccc(C(C)(C)NC(=O)Nc2ccc(C)cn2)c1
  3 | 7

Values run as follows: BmaI1 counterscreen | BmaI1
O=C1CN(C(=O)CSc2nc(-c3cccs3)cn2-c2ccccc2)c2ccccc2N1
  -4 | 14
C=CCn1c(C)cc(C(=O)CSc2nnc(N)s2)c1C
  -4 | 10
Cc1ccc2c(CC(=O)N(Cc3nnc(-c4ccccc4)o3)C(C)C)coc2c1
  14 | 18
O=C(NCc1ccc2c(c1)OCO2)c1ccccc1CSc1nc2ccccc2o1
  4 | 25
O=C(CSc1nc2ccccc2o1)NCC1COc2ccccc2O1 (configuration not stated)
  10 | 18
CC(C1CC2CCC1C2)n1c(SCC(=O)c2ccc(Cl)s2)nnc1-c1cccs1 (configuration not stated)
  1 | 24
O=C(CN1CCSc2ccccc21)Nc1ccc(N2CCOCC2)cc1
  -1 | 5
Cc1ccc(C)c(OC(=O)C2CC(=O)N(c3ccc4c(c3)OCCO4)C2)c1C (configuration not stated)
  2 | 4
c1nc(Oc2ccc(-c3nnco3)cc2)c2c3c(sc2n1)CCCC3
  -9 | -6
CCCCn1c(SCC(=O)NCc2cccs2)nnc1C(CC)N(C)C (configuration not stated)
  -2 | 10
Cc1ccc(C)c(C(=O)COC(=O)c2ccc[nH]c2=O)c1
  -4 | -3
COc1ccc(S(=O)(=O)N(C)C2(C)CCS(=O)(=O)C2)cc1C (configuration not stated)
  4 | 6
Oc1cc2c(cc1CN1CCc3ccccc3C1)CCC2
  -10 | 9
CCCn1c(SCC(=O)c2cccs2)n[nH]c1=O
  40 | 100
O=C(CCn1ccnc1)OCc1ccccc1
  14 | 17
O=C(OCC(=O)N1CCCCCC1)c1n[nH]c(=O)c2ccccc12
  1 | 2
NC(=O)c1ccc(OCC(=O)NC(=O)NCC2COc3ccccc3O2)cc1 (configuration not stated)
  1 | 10
COc1cc(-c2nnc(COC(=O)C3=NN(c4cc(C)ccc4C)C(=O)CC3)o2)cc(OC)c1OC
  -2 | 14
CCC(CO)NCC(=O)Nc1ccc(C)cc1F (configuration not stated)
  0 | 4
O=C(CSc1ccccc1F)Nc1nc(-c2cccs2)cs1
  13 | 16

Values run as follows: BmaI1 counterscreen | BmaI1
O=C(CSc1ccccc1)Nc1nnc(C2CC2)s1
  1 | 10
CN1CCCN(C(=O)c2cnccn2)c2nc3ccccc3nc21
  0 | 14
O=C1CN(C(=O)/C=C/c2ccc(Br)cc2)CCN1
  -4 | -6
Cc1ccc(OCCNC(=O)c2ccc(NC(=O)CC#N)cc2)cc1
  17 | 26
c1ccc(-c2noc(CN3CCCC3c3cccs3)n2)cc1 (configuration not stated)
  12 | 23
CC(C#N)Sc1nnc(-c2ccco2)n1Cc1ccccc1 (configuration not stated)
  9 | 14
O=C1CN(C(=O)COC(=O)c2ccccc2)c2ccccc2N1
  6 | 4
Cn1nc(Nc2ccccc2N)cc1-c1ccccc1
  62 | 90
O=C(CN1CCN(c2ccc(C(F)(F)F)cn2)CC1)N1CCCC1c1ccc2c(c1)OCCCO2 (configuration not stated)
  8 | 16
CNC(=O)c1cc(Cl)ccn1
  -10 | -28
CS(=O)(=O)OCCCCOS(C)(=O)=O
  2 | -2
CN(C)S(=O)(=O)c1ccc(NCC(=O)N2CCN(c3ccccc3)CC2)cc1
  -5 | 18
O=c1cc(CSc2ncccn2)nc2ccc(Br)cn12
  5 | 8
CCCCn1nnnc1COC(=O)c1c2c(nc3ccccc13)CCCCC2
  12 | 24
CCCNC(=O)C1CN(S(=O)(=O)c2ccc(Cl)s2)c2ccccc2O1 (configuration not stated)
  -2 | 14
NC(=O)CSc1nc2cc(S(=O)(=O)Nc3cccc(Cl)c3)ccc2o1
  8 | 8
N#Cc1ccsc1NC(=O)c1cccnc1N1CCCC1
  1 | 8
CN1CCCN(C(=O)C2CCN(S(=O)(=O)c3cccs3)CC2)c2nc3ccccc3nc21
  -3 | 11
CC(=O)Nc1ccc(C(=O)N(C)Cc2cccc(F)c2)cc1
  11 | 20
CC/C(=N\NC(=O)C1CC1)c1cccc(Cl)c1
  18 | -18

Values run as follows: BmaI1 counterscreen | BmaI1
c1ccc2[nH]c(SCc3nc4ccccc4o3)nc2c1
  8 | 16
COC(=O)c1ccc(CSc2nc(N)c3c4c(sc3n2)CCCC4)o1
  -8 | -4
O=C(COc1ccc(Oc2ccccc2)cc1)NCc1cn2ccsc2n1
  9 | 19
Nc1nc(SC(C(=O)c2c[nH]c3ccccc23)c2ccccc2)n[nH]1 (configuration not stated)
  6 | 10
N#Cc1ccc(CN2C(=O)CC3(CCCC3)C2=O)cc1
  -7 | 26
COc1ccc(CN(C)C(=O)COc2ccc(-c3nnco3)cc2)c(OC)c1OC
  -8 | -8
NCCCOC1CCCCC1
  11 | 16
Cc1cc(C)cc(NC2=NCCCS2)c1
  5 | -2
O=C(c1cnc2nc3ccccc3n2c1)c1cc(F)ccc1O
  19 | 32
CC1CCCCN1S(=O)(=O)c1ccccc1C(=O)N1CCCCCC1 (configuration not stated)
  6 | 46
CC1CC(C)(C)CC2(C1)NC(=O)N(CC(O)c1ccccc1)C2=O (configuration not stated)
  -2 | 0
N#CCCn1nc(-c2ccccc2)c2c1Nc1ccccc1NC2c1ccc(F)cc1 (configuration not stated)
  33 | 78
CC(C)[C@H](NC(=O)c1cccc(S(=O)(=O)N2CCCC2)c1)c1nc2ccccc2[nH]1
  12 | 16
CCCn1c(SCn2nnc3ccccc3c2=O)n[nH]c1=O
  1 | -1
S=c1[nH]nc(-c2ccc[nH]2)o1
  16 | 52
C[C@@H](C(=O)N=c1sc2ccccc2n1C)N1C(=O)C2CC=CCC2C1=O (some centres not stated)
  1 | 6
Nn1c(-c2cccs2)nc2sc3c(c2c1=O)CCCC3
  4 | 9
O=C(N=C1c2ccccc2CN1c1ccc2c(c1)OCO2)c1ccco1
  8 | 44
COCCn1c(C)cc(C(=O)CSC2=Nc3ccccc3CS2)c1C
  1 | 8
O=C(NC1=NN(c2ccccc2)C(=O)C1)c1ccc(Br)s1
  30 | 47

Structural class: the entries above with a CF3 group
Values run as follows: BmaI1 counterscreen | BmaI1
O=C1CC(N2CCN(S(=O)(=O)c3ccc4c(c3)OCCO4)CC2)C(=O)N1c1cccc(C(F)(F)F)c1 (configuration not stated)
  3 | 8
O=C(CN1CCN(c2ccc(C(F)(F)F)cn2)CC1)N1CCCC1c1ccc2c(c1)OCCCO2 (configuration not stated)
  8 | 16

(more compounds)
Values run as follows: BmaI1 counterscreen | BmaI1
Cc1ccccc1CN(C)CC(O)COCc1ccc2c(c1)OCO2 (configuration not stated)
  -4 | 2
Cc1nnc(Oc2ccccc2C#N)c2ccccc12
  -2 | 7
O=C(Cc1c(Cl)cccc1Cl)NCC(c1ccco1)N1CCCC1 (configuration not stated)
  11 | 4
CCCn1c(SCC(=O)NC(=O)NCc2ccccc2)n[nH]c1=O
  -15 | -12
CN(C)C(CNC(=O)C1(c2ccccc2)CC1)c1ccco1 (configuration not stated)
  12 | 14
O=C(Oc1ccc(-c2nnco2)cc1)c1ccccc1F
  18 | 12
COc1ccc(C(=O)Cc2nc3ccccc3[nH]2)cc1OC
  1 | 18
O=C(CSc1ncccn1)N(C1CCCCC1)C1CCCCC1
  -4 | 8
CCN(Cc1ccncc1)C(=O)C(CO)c1ccccc1 (configuration not stated)
  48 | 5
CN(C)C=Nc1nc2ccccc2nc1Cl
  2 | 6
CS(=O)(=O)c1ccc(C(=O)NCCc2ccc(S(N)(=O)=O)cc2)cc1
  6 | 4

Entries of single compounds, looked up by structure.
O=C(Cc1c(Cl)cccc1Cl)NCC(c1ccco1)N1CCCC1 (configuration not stated) reads BmaI1 counterscreen: 11; BmaI1: 4
Cc1nnc(Oc2ccccc2C#N)c2ccccc12 reads BmaI1 counterscreen: -2; BmaI1: 7

A portion of the library; rates above refer to the full screens.
